Screens from PubChem.
rRNA inh HTS – reduced GFP signal of wild-type E. coli, primary screen, bacterial rRNA inhibitor project, GFP/RFP fluorescence, OD600, single point | 350,000 tested, 1.6% active | GFP signal change (wild-type ribosome), % (no concentration beside the values) | E. coli WT GFP vs humanized-ribosome RFP mutants, 24 h; active compounds read low; DMSO median 0, no signal -100 | AID 720706, 2013;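 active = significant combined selectivity score with lowered wild-type GFP, culture density cut under 30%, mutant RFP and density less affected; inactive = any of these conditions unmet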; note: one replicate is shown; some compounds called inactive have numbers as strong as hits
MLL AF4-AF9 inh – inhibitors of AF4 peptide binding to AF9, primary screen, biochemical, AlphaScreen, biotin-AF4 peptide, FLAG-AF9, single point | 350,000 tested, 0.47% active | inhibition, % at 10 µM;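 active = every replicate reaching a set inhibition limit, whatever the replicate mean, cut at about 25% in these data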;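 note: 0% = plate neutral control median and 100% = total signal loss; the record names both 10 and 1 µM as test concentration; the first replicate is given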
Target sequence (P42568 whole entry, looked up): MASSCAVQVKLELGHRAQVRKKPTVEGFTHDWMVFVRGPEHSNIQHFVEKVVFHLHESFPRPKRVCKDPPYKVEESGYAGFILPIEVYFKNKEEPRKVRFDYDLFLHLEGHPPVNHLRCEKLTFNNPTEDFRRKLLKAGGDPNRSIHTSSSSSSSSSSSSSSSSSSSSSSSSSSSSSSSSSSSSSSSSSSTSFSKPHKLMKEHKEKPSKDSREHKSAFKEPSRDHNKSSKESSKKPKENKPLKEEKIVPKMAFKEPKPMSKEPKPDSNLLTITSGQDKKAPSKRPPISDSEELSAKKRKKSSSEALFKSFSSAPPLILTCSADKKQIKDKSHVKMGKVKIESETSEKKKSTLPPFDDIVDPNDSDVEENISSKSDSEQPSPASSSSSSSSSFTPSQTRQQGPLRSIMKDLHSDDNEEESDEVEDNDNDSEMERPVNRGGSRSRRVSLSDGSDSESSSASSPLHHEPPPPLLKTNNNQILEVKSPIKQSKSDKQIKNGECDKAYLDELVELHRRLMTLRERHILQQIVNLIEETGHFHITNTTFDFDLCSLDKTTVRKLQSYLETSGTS
rRNA inh HTS OD600 – recorded beside rRNA inh HTS, whose call it bears; OD600 change, %; measured here: OD600 growth;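 optical density of the mix in the first replicate; 0 = DMSO median and -100 = no signal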
rRNA inh HTS RFP – second read-out of rRNA inh HTS, no call of its own (marks repeat the call); RFP signal change, %; measured here: RFP humanized mutant strains;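 first replicate; 0 = DMSO median and -100 = no signal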
An asterisk follows results filed as active; & = joins results of further samples.

| Structure | rRNA inh HTS | rRNA inh HTS OD600 | rRNA inh HTS RFP | MLL AF4-AF9 inh |
| --- | --- | --- | --- | --- |
| O=C(C[C@H]1CC[C@@H](NC(=O)Nc2ccccc2)[C@@H](CO)O1)NCc1cccc(F)c1 | -3 | 2 | -3.1 | -3.4 |
| CC(N)c1csc(Nc2ccc(C(=O)c3ccccc3)cc2)n1 (configuration not stated) | -5 | -5 | 11 | 11 |
| O=C(C1CCCC1)N1C[C@H]2[C@@H](c3ccccc31)[C@@H](CO)N2C(=O)c1cccnc1 | 7 | 13 | 0.7 | -0.9 |
| C[C@@H]1CN([C@H](C)CO)C(=O)c2cc(NS(=O)(=O)c3cccs3)ccc2O[C@@H](C)CCCCO[C@@H]1CN(C)Cc1ccc(C(F)(F)F)cc1 | 4 | 10 | 12 | 0.5 |
| CCCCCCCCN1C(=O)[C@H](CC(=O)NCc2cccc(C(F)(F)F)c2)C[C@@]2(C(=O)OCC)CCCC=C12 | 17 | 24 | 0.8 | -2.5 |
| CCS(=O)(=O)N1CC2(CN(Cc3ccc(OC)cc3)[C@@H](CO)c3c2c2ccc(OC)cc2n3C)C1 | -2 | -15 | 6.3 | -0.3 |
| Cc1noc(C)c1S(=O)(=O)N(C)C[C@H]1OCCCC[C@@H](C)Oc2ccc(NC(=O)NC(C)C)cc2C(=O)N([C@@H](C)CO)C[C@H]1C | -1 | -4 | 0.6 | 6.2 |
| Cn1cnc(CCNC(=O)C[C@@H]2CC[C@@H]3[C@H](COC[C@H](O)CN3C(=O)C3CCCC3)O2)c1 | 1 | 11 | 5.6 | -0.6 |
| O=C1NC(Cc2ccc(O)cc2)c2nc3ccc(F)cc3c(=O)n2-c2cc(Cl)ccc21 (configuration not stated) | -8 | 1 | -0.5 | -0.4 |
| C[C@H]1CN([C@@H](C)CO)C(=O)Cc2cc(NC(=O)C3CC3)ccc2O[C@@H]1CN(C)S(=O)(=O)c1ccc(Cl)cc1 | 0 | 2 | -0.2 | -0.4 |
| C[C@@H]1CCCCO[C@H](CN(C)S(=O)(=O)c2cccs2)[C@@H](C)CN([C@@H](C)CO)C(=O)c2cc(NS(=O)(=O)c3cccs3)ccc2O1 | 4 | -5 | 3.7 | 0.5 |
| C[C@H]1CN([C@@H](C)CO)C(=O)c2cc(NS(=O)(=O)c3cccs3)ccc2O[C@H]1CN(C)C | -1 | 1 | 0.5 | -1.0 |
| C[C@@H]1CN([C@H](C)CO)C(=O)CCCn2nncc2CO[C@@H]1CN(C)Cc1ccc(Oc2ccccc2)cc1 | -10 | -41 | 18 | 4.0 |
| Cc1noc(C)c1NC(=O)N(C)C[C@H]1OCCCC[C@H](C)Oc2ccc(NC(=O)Nc3ccc(F)cc3)cc2C(=O)N([C@@H](C)CO)C[C@@H]1C | -4 | 0 | 5.1 | -0.5 |
| O=C(c1cccc(F)c1)N1CC[C@@H]2[C@@H](CO)Nc3ccc(-c4ccc(F)cc4)cc3[C@@H]21 | -54 | -75 | -11 | 2.9 |
| Cc1ccc(S(=O)(=O)Nc2ccc3c(c2)CC(=O)N([C@@H](C)CO)C[C@H](C)[C@@H](CN(C)S(=O)(=O)c2cccs2)O3)cc1 | -3 | -9 | 0.7 | -15 |
| O=C(c1ccc(-c2cccc(C(F)(F)F)c2)o1)N1CCN(c2ccccc2)CC1 | 4 | 5 | -2.0 | 3.7 |
| Cn1c(=O)c2c(nc(SCCN3CCOCC3)n2Cc2ccc(Cl)cc2)n(C)c1=O | -7 | -7 | -0.9 | -2.8 |
| CC(C)NC(=O)N(C)C[C@@H]1Oc2ccc(NC(=O)C3CC3)cc2C(=O)N([C@@H](C)CO)C[C@H]1C | 1 | 11 | -1.2 | -1.4 |
| COc1cc(-c2ccc(N3C(c4ccsc4)=Cc4ccccc4C3CC(C)=O)cc2)cc(OC)c1OC (configuration not stated) | -24 | -25 | -5.0 | -0.3 |
| O=C(C1CCCC1)N1CC2(C1)[C@H](c1ccccc1)[C@@H](CO)N2Cc1ccccc1F | -3 | -17 | 2.2 | -0.8 |
| COc1ccc2c3c(n(C)c2c1)[C@H](CO)N(Cc1ccccc1F)CC31CCN(C(C)=O)CC1 | 3 | -2 | -1.2 | 4.9 |
| Cc1noc(C)c1NC(=O)Nc1ccc2c(c1)C(=O)N([C@H](C)CO)C[C@H](C)[C@H](CN(C)C(=O)NC1CCCCC1)OCCCC[C@@H](C)O2 | 9&3 | 8&4 | 0.3&1.0 | -3.7&-3.4 |
| Cc1cccc(CNC(=O)Nc2nnc([C@H]3C[C@H](O)[C@@H](CO)O3)s2)c1 | 23 | 19 | 2.6 | 0.2 |
| C[C@@H]1CCCCO[C@@H](CN(C)C(=O)Nc2ccccc2)[C@H](C)CN([C@H](C)CO)C(=O)c2cc(NC(=O)Nc3cccc4ccccc34)ccc2O1 | 2 | 5 | -0.4 | 1.1 |
| CCN1[C@@H]2c3ccc(-c4ccc(C(=O)N(C)C)cc4)c(=O)n3C[C@@H]2[C@@H](CO)[C@@H]1C(=O)NCCOC | 3 | 7 | -0.9 | -0.8 |
| COc1ccc(NC(=O)N(C)C[C@H]2Oc3c(NC(=O)Nc4ccc5c(c4)OCO5)cccc3C(=O)N([C@H](C)CO)C[C@H]2C)cc1 | 0 | 4 | -0.4 | 6.0 |
| C[C@@H]1CN([C@@H](C)CO)C(=O)c2cccc(NC(=O)Nc3ccccc3)c2O[C@@H]1CN(C)Cc1ccc(Oc2ccccc2)cc1 | -6 | -37 | 12 | 0.1 |
| O=C(C[C@@H]1CC[C@@H](NC(=O)c2cccnc2)[C@H](CO)O1)NCCN1CCCCC1 | 0 | 5 | -0.8 | 0.0 |
| CC(C)[C@H]1COCc2cn(nn2)CC[C@H](Cc2ccccc2)C(=O)N1 | 0 | 7 | -1.8 | -1.1 |
| COc1ccc(S(=O)(=O)N(C)C[C@H]2Oc3c(NS(=O)(=O)c4c(C)noc4C)cccc3C(=O)N([C@H](C)CO)C[C@H]2C)cc1 | -2 | -5 | 1.9 | 1.5 |
| CC(=O)NC(c1ccc(F)c(F)c1)c1nc(-c2cccs2)cs1 (configuration not stated) | -17 | -9 | 9.2 | 2.0 |
| COC(=O)C[C@@H]1C[C@H]2c3cc(NS(=O)(=O)c4ccccc4)ccc3O[C@H]2[C@@H](CO)O1 | 4&1 | 0&7 | -0.5&-0.9 | -1.0&-18 |
| C[C@@H]1CN([C@H](C)CO)C(=O)Cc2cc(NS(=O)(=O)c3cn(C)cn3)ccc2O[C@@H]1CN(C)Cc1ccc(Cl)c(Cl)c1 | -7 | -19 | 1.4 | 0.7 |
| C[C@H](CO)N1C[C@H](C)[C@H](CN(C)Cc2ccc(C(F)(F)F)cc2)Oc2c(NC(=O)Nc3ccc4c(c3)OCO4)cccc2C1=O | -2 | -16 | -1.1 | 3.6 |
| C[C@H]1CN([C@@H](C)CO)C(=O)Cc2cc(NC(=O)C3CC3)ccc2O[C@H]1CN(C)C(=O)NC1CCCCC1 | 5 | 7 | -1.0 | -1.2 |
| C[C@H](CO)N1C[C@H](C)[C@H](CN(C)S(=O)(=O)c2ccc(Cl)cc2)OCCCC[C@H](C)Oc2ccc(NS(C)(=O)=O)cc2C1=O | -4 | -1 | -3.0 | 3.1 |
| COCCNC(=O)C[C@H]1C[C@H]2c3cc(NC(=O)c4ccc5c(c4)OCO5)ccc3O[C@H]2[C@H](CO)O1 | -2 | -5 | -3.7 | -1.7 |
| Cc1nnc(SCC(=O)Nc2cc(S(=O)(=O)N3CCOCC3)ccc2N2CCCC2)s1 | 8 | 6 | 3.4 | -1.2 |
| CC1=C(C(=O)N(C(C)C)C(C)C)CC(CC(=O)NC2CCCC2)C(=O)N1Cc1ccc(F)cc1 (configuration not stated) | 0 | 12 | -0.3 | -3.2 |
| Cc1cccc(S(=O)(=O)N2[C@@H]3CNC[C@H]2C3c2ccc(-c3cccnc3)cc2)c1 (some centres not stated) | -2&-6 | 6&-2 | 3.1&-0.1 | 2.8&1.9 |
| CN(C)CC(=O)N1CC2(C1)[C@@H](c1ccccc1)[C@@H](CO)N2S(=O)(=O)c1ccccc1 | 8 | 28 | -0.1 | 1.6 |
| O=C(C[C@H]1CC[C@H](NC(=O)c2cnccn2)[C@@H](CO)O1)NCc1ccccc1F | 3 | 3 | -0.5 | 0.7 |
| CNC[C@H]1Oc2ccc(NS(=O)(=O)c3cn(C)cn3)cc2C(=O)N([C@@H](C)CO)C[C@H]1C | -3 | 3 | -1.5 | -4.6 |
| O=C(CSc1nc2ccc(F)cc2c(=O)n1-c1ccccc1)Nc1ccc2c(c1)CCC2 | 2 | 2 | -2.2 | 0.4 |
| C[C@H](CO)N1C[C@H](C)[C@@H](CN(C)S(C)(=O)=O)Oc2c(NC(=O)c3cnccn3)cccc2C1=O | 5 | 8 | -2.8 | 0.2 |
| COc1ccc(C(CNC(=O)COc2ccccc2)N2CCCCC2)cc1 (configuration not stated) | 2 | 2 | 1.6 | -4.7 |
| O=C(NCc1ccc(F)c(F)c1)c1ccc(-c2ccc(F)c(F)c2)c2ccoc12 | -3 | -15 | -1.6 | 1.1 |
| CO[C@@H]1CN(C)C(=O)c2ccc(NC(=O)C3CC3)cc2OC[C@@H](C)NC[C@@H]1C | 1 | 3 | -0.3 | -2.4 |
| C[C@@H]1CN([C@H](C)CO)C(=O)Cc2cc(NC(=O)CCN3CCOCC3)ccc2O[C@@H]1CN(C)S(=O)(=O)c1cn(C)cn1 | -1 | 6 | -1.4 | -4.1 |

Reformatted: 5 of the compounds above
| rRNA inh HTS | rRNA inh HTS OD600 | rRNA inh HTS RFP | MLL AF4-AF9 inh | structure |
| --- | --- | --- | --- | --- |
| 0 | 7 | -1.8 | -1.1 | CC(C)[C@H]1COCc2cn(nn2)CC[C@H](Cc2ccccc2)C(=O)N1 |
| -2 | -5 | 1.9 | 1.5 | COc1ccc(S(=O)(=O)N(C)C[C@H]2Oc3c(NS(=O)(=O)c4c(C)noc4C)cccc3C(=O)N([C@H](C)CO)C[C@H]2C)cc1 |
| -17 | -9 | 9.2 | 2.0 | CC(=O)NC(c1ccc(F)c(F)c1)c1nc(-c2cccs2)cs1 (configuration not stated) |
| 4&1 | 0&7 | -0.5&-0.9 | -1.0&-18 | COC(=O)C[C@@H]1C[C@H]2c3cc(NS(=O)(=O)c4ccccc4)ccc3O[C@H]2[C@@H](CO)O1 |
| -7 | -19 | 1.4 | 0.7 | C[C@@H]1CN([C@H](C)CO)C(=O)Cc2cc(NS(=O)(=O)c3cn(C)cn3)ccc2O[C@@H]1CN(C)Cc1ccc(Cl)c(Cl)c1 |

An excerpt from above, limited to rRNA inh HTS and rRNA inh HTS OD600.
Structure	rRNA inh HTS	rRNA inh HTS OD600
COc1ccc(S(=O)(=O)N(C)C[C@H]2Oc3c(NS(=O)(=O)c4c(C)noc4C)cccc3C(=O)N([C@H](C)CO)C[C@H]2C)cc1	-2	-5
O=C(C[C@H]1CC[C@H](NC(=O)c2cnccn2)[C@@H](CO)O1)NCc1ccccc1F	3	3

Following part
| Structure | rRNA inh HTS | rRNA inh HTS OD600 | rRNA inh HTS RFP | MLL AF4-AF9 inh |
| --- | --- | --- | --- | --- |
| CO[C@H]1CN(C)C(=O)c2cc(NC(=O)c3cnccn3)ccc2OC[C@H](C)NC[C@H]1C | -2 | -6 | -1.3 | -2.5 |
| C[C@H]1CN([C@@H](C)CO)C(=O)Cc2cc(NC(=O)Nc3ccccc3)ccc2O[C@H]1CN(C)C(=O)NC1CCCCC1 | 2 | 0 | 0.2 | 0.5 |
| O=C(Nc1ccn(CCCNCCCN2CCCC2=O)c(=O)n1)OCc1ccccc1 | 19 | 3 | 4.4 | 0.3 |
| CCc1nc2c(OCc3ccc(Cl)cc3Cl)cccn2c1N(C)C(C)=O | -2 | -11 | -1.0 | 1.1 |
| COC(=O)c1ccc(CNc2ccc(C(C)=O)cc2)cc1 | -8 | -12 | -3.2 | -2.1 |
| COc1ccc2c3c(n(C)c2c1)[C@H](CO)N(C(=O)CN(C)C)CC31CCN(C(=O)NC(C)C)CC1 | 3 | 10 | -0.6 | -5.3 |
| O=C(C[C@@H]1C=C[C@H](NC(=O)c2ccccc2)[C@H](CO)O1)Nc1ccc(-c2ccccc2)cc1 | -32 | -57 | 15 | 1.8 |
| O=C(Nc1ccccc1)C1Cc2c(-c3ccco3)ccnc2O1 (configuration not stated) | -8 | -11 | 1.7 | 2.0 |
| CCC(=O)N1[C@@H]2CN(S(=O)(=O)c3ccc(F)cc3)c3ccccc3[C@@H]2[C@@H]1CO | 6 | 1 | -1.0 | -2.8 |
| CCCC#Cc1ccc([C@@H]2[C@H](CO)N3C(=O)CN(C(=O)c4ccccc4)C[C@@H]23)cc1 | 2 | -13 | -2.0 | 2.7 |
| C[C@@H]1CN([C@@H](C)CO)C(=O)CCCn2nncc2CO[C@H]1CN(C)Cc1ccc2c(c1)OCCN2C | -3 | 10 | 1.2 | -15 |
| COc1ccccc1C(=O)NC1CC2CCCC(C1)N2Cc1ccccc1 (configuration not stated) | 5 | 10 | -1.1 | -0.6 |
| O=C(C[C@@H]1CC[C@@H]2[C@H](COC[C@@H](O)CN2Cc2ccccc2)O1)N1CCOCC1 | 1 | 12 | -1.2 | -5.4 |
| COCC#Cc1cnc2c(c1)C(=O)N([C@H](C)CO)C[C@@H](C)[C@@H](CN(C)C(=O)c1ccc3c(c1)OCO3)O2 | 4 | 15 | -1.5 | -2.1 |
| COc1ccc2c3c([nH]c2c1)[C@H](CO)N(C(=O)Nc1cccc(F)c1)CC31CCN(CC2CC2)CC1 | 6 | 0 | 4.5 | 12 |
| C[C@H](O)C#Cc1cnc2c(c1)C(=O)N([C@H](C)CO)C[C@H](C)[C@@H](CN(C)Cc1ccc(-c3ccccc3)cc1)O2 | 3 | -12 | 8.4 | 10 |

An excerpt. The share of hits here may be higher or lower than overall.
